EPAC1 ag val – human EPAC1 agonism, validation; EPAC1 Rap1b BODIPY-GDP exchange, fluorescence; 16,000 tested, 1% active; Potency, µM, for inactives: max response, positive = active, most hits filed as activators; AID 1645883; O95398; active = well fitted activation curve with a large enough effect; inconclusive = small, poorly fitted or top-dose-only effect; inactive = no such curve, though single readings can be large or run the other way;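 also: nearly all actives have a fitted effect of over 70% in size; series mostly up to about 76 or 150 µM; scaled to a cAMP control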
Target sequence (O95398 whole entry, looked up): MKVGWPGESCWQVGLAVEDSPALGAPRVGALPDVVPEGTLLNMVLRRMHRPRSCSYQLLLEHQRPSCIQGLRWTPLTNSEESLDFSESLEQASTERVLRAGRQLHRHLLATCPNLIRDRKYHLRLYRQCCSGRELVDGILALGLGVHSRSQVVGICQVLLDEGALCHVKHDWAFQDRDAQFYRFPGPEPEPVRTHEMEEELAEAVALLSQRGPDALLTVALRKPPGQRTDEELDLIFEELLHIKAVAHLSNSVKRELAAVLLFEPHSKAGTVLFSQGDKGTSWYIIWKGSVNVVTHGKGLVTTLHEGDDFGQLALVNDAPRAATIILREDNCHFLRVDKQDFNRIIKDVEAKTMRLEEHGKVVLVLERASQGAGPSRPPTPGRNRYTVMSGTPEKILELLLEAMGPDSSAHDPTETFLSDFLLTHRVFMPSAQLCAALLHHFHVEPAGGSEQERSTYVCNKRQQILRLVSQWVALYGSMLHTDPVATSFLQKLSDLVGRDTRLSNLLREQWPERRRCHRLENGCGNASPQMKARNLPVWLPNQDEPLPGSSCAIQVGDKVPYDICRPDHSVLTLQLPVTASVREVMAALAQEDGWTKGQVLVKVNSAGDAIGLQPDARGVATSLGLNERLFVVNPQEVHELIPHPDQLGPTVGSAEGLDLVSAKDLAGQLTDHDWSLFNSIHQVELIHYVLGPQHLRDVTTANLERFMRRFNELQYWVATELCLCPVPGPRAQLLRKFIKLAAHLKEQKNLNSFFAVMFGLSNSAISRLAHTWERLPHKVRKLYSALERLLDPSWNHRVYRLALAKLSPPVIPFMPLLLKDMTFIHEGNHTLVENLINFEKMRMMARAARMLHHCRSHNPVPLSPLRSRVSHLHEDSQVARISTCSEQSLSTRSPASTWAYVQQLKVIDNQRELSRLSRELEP
Starred values were filed as active, the others as inactive; ? = inconclusive; & = joins results of further samples; [ ] = dose if it differs, or a comment. % is scaled to controls: 0 for no effect and ±100 for the full control effect; potency is read from the fitted curve at half-maximal effect. Only part of the results is shown, so the mix of outcomes need not match the whole.

EPAC1 ag val | mol
-3%&6% | COc1cc(N)c(Cl)cc1C(=O)CCC1CCN(CCNS(C)(=O)=O)CC1
11% | CCNc1ncc2nc(-c3cn(C)c4ccccc34)c(=O)n(CCC#N)c2n1
-9% | O=c1c(-c2cccc(Cl)c2)nc2cncnc2n1C1CC1
? | Cn1c(C(c2cc3ccccc3n2C)c2cc3ccccc3n2C)cc2ccccc21
3% | C[C@@H]1CCC(=O)N(CC[C@H](N=[N+]=[N-])c2ccccc2)CC1
5%&2% | COc1cc(-c2ccc(N=Nc3ccc4c(S(=O)(=O)O)cc(S(=O)(=O)O)c(N)c4c3O)c(OC)c2)ccc1N=Nc1ccc2c(S(=O)(=O)O)cc(S(=O)(=O)O)c(N)c2c1O
3% | CC(=O)Nc1ccccc1-c1nc(CNC(=O)c2cc(C)ccc2C)c(C)o1
7% | CC(N)=NCCCC[C@H](N)C(=O)O
-7% | Cc1ccc(-c2ccnc(-n3ncc(C(=O)NC[C@@H]4CCCN5CCCC[C@H]45)c3C3CC3)n2)o1
-143%[inhibitor] | C=CCCCCCCCCCCCC(O)CC(O)CO (stereo unspecified) (tested in a mixture with another compound)
-18% | Cc1ccc2c(c1)c1c3n2CCNC3CCC1 (stereo unspecified)
-32%[inhibitor] | CCNc1ncc2nc(-c3cc(F)cc(F)c3)c(=O)n(C3CC3)c2n1
30% | COCCNc1ncnc2ccc(-c3ccccc3OC)cc12
-9% | CC(C)Nc1cccnc1N1CCN(C(=O)c2cc3cc(NS(C)(=O)=O)ccc3[nH]2)CC1
-26% | COc1cc(/C=C(\C#N)C(=O)Nc2nnc(C(F)(F)F)s2)ccc1OCc1ccc(C(F)(F)F)cc1C(F)(F)F
-12% | CCc1nc2cc(C(=O)NC3CCS(=O)(=O)C3)cc(NC(=O)c3ccccc3OC)c2n1C (stereo unspecified)
-14% | CNC(C)CCC=C(C)C (stereo unspecified)
15% | COc1ccc(C2COc3c(ccc(O)c3OC)C2)c(OC)c1O (stereo unspecified)
7% | COc1ccccc1-c1ccnc(-n2ncc(C(=O)NC3CCCN(Cc4ccccc4)C3)c2C)n1 (stereo unspecified)
-9% | CC(C)C(NS(C)(=O)=O)c1nnc2n1CCN(Cc1ccc3cccnc3c1)CC2 (stereo unspecified)

EPAC1 ag val | mol
-15% | O=C(O)Cc1cc(I)c(Oc2cc(I)c(O)c(I)c2)c(I)c1
-19%&-35% | CN1CCC[C@@H]1CCO[C@](C)(c1ccccc1)c1ccc(Cl)cc1
2% | O=C(c1cccc(F)c1)N1CCC2(CC1)CN(c1ccc(-c3ccccc3)cc1)C2
5% | Cc1oc(-c2ccccc2NC(=O)c2ccccc2)nc1CNC(=O)C1CC(=O)OC12CCCCC2 (stereo unspecified)
-43%&27%[inhibitor] | Cc1cccc(Nc2ccncc2S(=O)(=O)NC(=O)NC(C)C)c1
-26% | COc1ccc(Oc2ncc3nc(-c4cccs4)c(=O)n(Cc4cccs4)c3n2)cc1
-39%[inhibitor] | Cc1noc(C)c1-c1cc(NCc2cccs2)ncn1
-3%&-15% | CCCCCCCCCCCCC/C=C/[C@@H](O)[C@@H](N)CO
-2% | COc1ccccc1-c1cc(=O)c2cc(O)ccc2o1
? | CS(=O)(=O)N1CCC2(CCN(c3cccc(-c4ccccc4)c3)CC2)CC1
-25% | O=C(Cn1cc2ccccc2n1)N1CCOc2ccc(C(O)C3CCCCC3)cc2C1 (stereo unspecified)
-11% | Cc1c(C(=O)NCc2cccc(F)c2)sc2ncnc(NCC3CCCO3)c12 (stereo unspecified)
1% | O=C(NC1CC1)[C@@H]1C[C@H](Sc2nc3ccccc3[nH]2)CN1CC1CCCCC1
2%&7%&1% | CN(C)CC/C=C1\c2ccccc2COc2ccccc21
1% | Nc1nc(Cl)nc2c1ncn2[C@@H]1O[C@H](COP(=O)(O)OP(=O)(O)OP(=O)(O)O)[C@@H](O)[C@H]1O
-6%&0%&-10% | CCN(CC)CCCC(C)Nc1ccnc2cc(Cl)ccc12 (stereo unspecified)
-12%&-22% | O=C(O)COc1ccc(C(=O)c2cccs2)c(Cl)c1Cl
-14% | COc1ccc(CN2CCCC(n3cc(C(=O)N4CCCCC4)nn3)C2)c(OC)c1 (stereo unspecified)
-35%&13% | O=c1[nH]cnc2c1ncn2C1OC(CO)C(O)C1O (stereo unspecified)
12%&-17% | Cn1c(=O)c2c(nc(/C=C/c3cccc(Cl)c3)n2C)n(C)c1=O

EPAC1 ag val | mol
-8%&-13%&13%&4% | COc1ccc2c(c1)c(CC(=O)O)c(C)n2C(=O)c1ccc(Cl)cc1
? | CC(=O)Nc1ccc(SC[C@H](Cc2ccccc2)N2CC[C@@H](N)CCC2=O)cc1
-8% | COCC(=O)Nc1cc(C(=O)N2CCCCC2c2nccs2)c2c(c1)nc(-c1ccncc1)n2C (stereo unspecified)
? | CC(=O)N1CCC2(CC1)CN(c1ccccn1)C2
21% | Cn1cccc1C(=O)N1CCC[C@@]2(CCN(C(=O)Nc3cccc(C#N)c3)C2)C1
-26% | CC(C(=O)O)c1ccc(C(=O)c2ccccc2)s1 (stereo unspecified)
18% | CC1CC[C@@]2(OC1)OC1CC3C4CC[C@@H]5CC(O)CC[C@@]5(C)C4CC[C@]3(C)C1C2C (stereo partly specified)
-14% | COc1ccccc1CNc1ncnc2sc(C(=O)N(C)C(C)C)c(C)c12
-78%[inhibitor] | Nc1nc2c(ncn2C2OC(COC(=O)c3ccccc3)C(OC(=O)c3ccccc3)C2OC(=O)c2ccccc2)c(=O)[nH]1 (stereo unspecified)
-30%[inhibitor] | CC1(C)S[C@@H]2[C@H](NC(=O)C(C(=O)O)c3ccccc3)C(=O)N2[C@H]1C(=O)O (stereo partly specified)
2% | Cn1cc(-c2nc3cnc(N4CCNCC4)nc3n(CCC#N)c2=O)c2ccccc21
24% | Cn1cccc1C(=O)N1CCC2(CC1)CN(c1ccccn1)C2
6% | N[C@@H](C(=O)O)c1cc(O)ccc1Cl
10% | Cc1cc(-n2nc3ccc(Cl)cc3n2)c(O)c(C(C)(C)C)c1
-14% | Cc1noc(C)c1-c1cc(NCc2ccccc2)ncn1
4% | COC(=O)c1ccccc1C(=O)N1CCOc2ccc(CN3CCN(c4ccccn4)CC3)cc2C1
6%&-34%&26% | NCCCCCC(=O)O
-27% | CC(=O)N[C@@H](C=O)[C@@H](O)[C@H](O)[C@H](O)CO
? | CCN(CC)CCNC(=O)c1cc(Br)c(N)cc1OC
-6% | CC(C(=O)O)c1ccc2c(c1)Cc1cccnc1O2 (stereo unspecified)

Already shown: an excerpt of the list.
EPAC1 ag val | mol
-8%&-13%&13%&4% | COc1ccc2c(c1)c(CC(=O)O)c(C)n2C(=O)c1ccc(Cl)cc1
? | CC(=O)Nc1ccc(SC[C@H](Cc2ccccc2)N2CC[C@@H](N)CCC2=O)cc1
-8% | COCC(=O)Nc1cc(C(=O)N2CCCCC2c2nccs2)c2c(c1)nc(-c1ccncc1)n2C (stereo unspecified)
? | CC(=O)N1CCC2(CC1)CN(c1ccccn1)C2
21% | Cn1cccc1C(=O)N1CCC[C@@]2(CCN(C(=O)Nc3cccc(C#N)c3)C2)C1
-26% | CC(C(=O)O)c1ccc(C(=O)c2ccccc2)s1 (stereo unspecified)
18% | CC1CC[C@@]2(OC1)OC1CC3C4CC[C@@H]5CC(O)CC[C@@]5(C)C4CC[C@]3(C)C1C2C (stereo partly specified)
-14% | COc1ccccc1CNc1ncnc2sc(C(=O)N(C)C(C)C)c(C)c12
-78%[inhibitor] | Nc1nc2c(ncn2C2OC(COC(=O)c3ccccc3)C(OC(=O)c3ccccc3)C2OC(=O)c2ccccc2)c(=O)[nH]1 (stereo unspecified)
-30%[inhibitor] | CC1(C)S[C@@H]2[C@H](NC(=O)C(C(=O)O)c3ccccc3)C(=O)N2[C@H]1C(=O)O (stereo partly specified)
2% | Cn1cc(-c2nc3cnc(N4CCNCC4)nc3n(CCC#N)c2=O)c2ccccc21
24% | Cn1cccc1C(=O)N1CCC2(CC1)CN(c1ccccn1)C2
6% | N[C@@H](C(=O)O)c1cc(O)ccc1Cl
10% | Cc1cc(-n2nc3ccc(Cl)cc3n2)c(O)c(C(C)(C)C)c1

Next records
EPAC1 ag val | mol
-4% | CC(C)N(CCO)Cc1nc(N2CCOCC2)c2cc(Cl)ccc2n1
-46%[inhibitor] | CCCCCCCCC(=O)NCc1cc(OC)c(O)cc1I
-9% | Cn1ccc(C(=O)NCC2CCC3(CCN(Cc4ccc(F)cc4F)CC3)O2)n1 (stereo unspecified)
-2% | CC1C(=O)N(C)C(=O)c2nc[nH]c21 (stereo unspecified)
-46%&-24%[inhibitor] | CCc1nn(CCCN2CCN(c3cccc(Cl)c3)CC2)c(=O)n1CCOc1ccccc1
-10% | COCCC(=O)NCC1Cc2cc(Cl)cc(-c3ccc4[nH]ccc4c3)c2O1 (stereo unspecified)
-14% | CN1c2cc(O)c(N=NC(N)=O)cc2CC1S(=O)(=O)O (stereo unspecified)
15% | CNc1ncnc2ccc(-c3ccccc3OC)cc12
-15% | CN(CCO)C(=O)c1cn(C2CCCN(Cc3ccc(C(F)(F)F)cc3)C2)nn1 (stereo unspecified)
15% | CN(C)c1ccc(/C=C/c2ccnc3ccc4ccccc4c23)cc1
5% | O=C(c1cnn(-c2nccc(-c3ccccc3F)n2)c1C1CC1)N1CCN(CCO)CC1
-15% | CCOc1ccc2nc(N3CCCN(CCCn4cccn4)CC3)nc(C)c2c1
5% | COc1ccc(CNc2ncnc3ccc(-c4ccoc4)cc23)c(OC)c1
-19% | Cn1cccc1C(=O)N1CCC2(CCN(Cc3ccccc3)CC2)CC1
-72%[inhibitor] | CC(C)NC(=O)N1CC[C@@]2(CCCN(C(=O)c3csnn3)C2)C1
3%&-8% | Oc1c(I)cc(Cl)c2cccnc12
-16% | COc1ccccc1C(=O)N[C@@H]1c2ccccc2C2(CCN(Cc3cnn(C)c3C)CC2)[C@H]1O
-64%[inhibitor] | O=C([C@@H]1CC=C[C@@H]2CCN(C3CC3)C(=O)[C@@H]21)N1CCOCC1
2% | c1cc2c3c(c1)c1c(n3CCNC2)CCCC1
-15% | Brc1ccccc1-c1ccccc1

EPAC1 ag val | mol
-57%[inhibitor] | O=C(c1cccc(F)c1)N1CCC[C@@]2(CCN(Cc3nccs3)C2)C1
-52%[inhibitor] | CCNc1ncc2nc(-c3ccc(F)cc3)c(=O)n(CCc3ccccc3)c2n1
10% | O=C1CCN(CCc2ccccc2)CCN1[C@H](CSc1ccccc1)Cc1ccccc1
-19% | Cc1ccccc1CN1[C@@H]2c3ccccc3C[C@@H]2OCCS1(=O)=O
-1% | Cc1cc(-c2ccnc(-n3ncc(C(=O)NCC4CCCO4)c3C3CC3)n2)c(C)s1 (stereo unspecified)
-11% | C[N+]1(Cc2ccccc2)CCC(C(=O)OCC2CCCC2)CC1 (stereo unspecified)
27% | CN[C@@H]1[C@H](O[C@H]2[C@H](O[C@H]3[C@H](O)[C@@H](O)[C@H](N=C(N)N)[C@@H](O)[C@@H]3N=C(N)N)O[C@@H](C)[C@]2(O)CO)O[C@@H](CO)[C@H](O)[C@H]1O
22% | O=c1c(-c2ccc(F)cc2)nc2cnc(N3CCNCC3)nc2n1-c1ccccc1
-9% | O=C(Nc1cccc(N2CCC(NCc3cnn(-c4cccc(F)c4)c3)CC2)c1)c1ccncc1
-35%[inhibitor] | Cc1nc2cncnc2n(Cc2ccccc2)c1=O
-5% | COc1ccccc1N(C)C
4%&-5% | O=c1[nH]c(=O)c2[nH]c(=O)[nH]c2[nH]1
? | COc1cccc(Cn2c(=O)c(-c3cc(F)cc(F)c3)nc3cnc(OC)nc32)c1
7% | Cc1noc(C)c1-c1nc(Nc2ccc(F)cc2)c2ccccc2n1
21% | N[C@@H](Cn1cc(I)c(=O)n(Cc2ccc(C(=O)O)cc2)c1=O)C(=O)O
-8%&8% | COc1cnc(NS(=O)(=O)c2ccc(N)cc2)nc1
-20% | N[C@@H](C(=O)N[C@H]1C(=O)N2C(C(=O)O)=C(Cl)CC[C@H]12)c1ccccc1
-8% | COC1=C(OC)C(=O)C(C/C=C(\C)CC/C=C(\C)CC/C=C(\C)CC/C=C(\C)CC/C=C(\C)CC/C=C(\C)CC/C=C(\C)CC/C=C(\C)CC/C=C(\C)CCC=C(C)C)=C(C)C1=O
-45%[inhibitor] | Cn1cccc1C(=O)N1CCC2(CCN(C(=O)Nc3ccccc3)CC2)CC1
25% | COc1ncc2nc(-c3cn(C)c4ccccc34)c(=O)n(C)c2n1

EPAC1 ag val | mol
-10% | CCn1c(-c2ccccc2F)nc2cc(C(=O)NCC3CCOCC3)cc(NC(C)=O)c21
-3% | CCCCN(CCCC)CCC(O)c1cc2c(Cl)cc(Cl)cc2c2cc(C(F)(F)F)ccc12 (stereo unspecified)
? | CC(=O)N1CCC2(CC1)CN(Cc1ccc(C#N)cc1)C2
-36%[inhibitor] | N#Cc1cccc(NC(=O)N2CC3(CCN(C(=O)c4cc(C(F)(F)F)cc(C(F)(F)F)c4)CC3)C2)c1
-7% | COc1ccc(-c2cc(C)cc3c2OC(CNC(=O)c2cc(C(C)C)on2)C3)nn1 (stereo unspecified)
-22% | O=C1[C@H](Cc2ccccc2)NCCCC[C@@H](c2ccc(Cl)cc2)N1Cc1ccccc1
-24% | COc1ccc2c(c1)-c1nc(-n3ncc(C(=O)N(C)CC4CCCN(C)C4)c3C)ncc1CC2 (stereo unspecified)
7% | O=C(OCc1ccccc1)c1cccnc1
24% | CNc1nc(-c2ccccc2OC)nc2ccccc12
19% | COC(=O)[C@@H](CC(C)C)N(Cc1ccccc1)S(=O)(=O)N(Cc1ccccc1)[C@@H](CC(C)C)C(=O)OC
9% | Clc1cccc[n+]1CCCCCC[n+]1ccccc1Cl
0% | COc1ccccc1-c1ccnc(-n2ncc(C(=O)N3CCCCC3c3cccnc3)c2C)n1 (stereo unspecified)
-1% | CCCCCCCCCCCCCCCC(=O)OC[C@@H](COP(=O)([O-])OCC[N+](C)(C)C)OC(=O)CCCCCCCCCCCCCCC
-102%[inhibitor] | Cc1noc(C)c1-c1nccc(-n2ccnc2)n1
-8% | COc1cc(=O)n2c(c1C(=O)NCc1ccco1)CCN(C(=O)c1ccc(C)c(C)c1)CC2
6% | O=c1c(-c2cc(F)cc(F)c2)nc2cnc(N3CCOCC3)nc2n1C1CC1
2% | Cc1nc2ccccc2n1Cc1ccc(Cl)cc1
